Screening data deposited in PubChem by National Center for Advancing Translational Sciences (NCATS).
WRN helicase inh: WRN helicase (human) inhibition. 360,000 compounds, 0.46% hits. Potency, µM (series often up to 114 µM), for inactives: at the top dose activity change, negative = inhibition, usual class: inhibitors. Q14191. WRN helicase unwinding, fluorescent forked duplex, kinetic; note: potency is the fitted concentration of half-maximal effect; % is set by controls: 0 for no effect and ±100 for the full control effect; nearly all actives have a fitted effect of over 55% in size
Target sequence (Q14191 whole entry, looked up): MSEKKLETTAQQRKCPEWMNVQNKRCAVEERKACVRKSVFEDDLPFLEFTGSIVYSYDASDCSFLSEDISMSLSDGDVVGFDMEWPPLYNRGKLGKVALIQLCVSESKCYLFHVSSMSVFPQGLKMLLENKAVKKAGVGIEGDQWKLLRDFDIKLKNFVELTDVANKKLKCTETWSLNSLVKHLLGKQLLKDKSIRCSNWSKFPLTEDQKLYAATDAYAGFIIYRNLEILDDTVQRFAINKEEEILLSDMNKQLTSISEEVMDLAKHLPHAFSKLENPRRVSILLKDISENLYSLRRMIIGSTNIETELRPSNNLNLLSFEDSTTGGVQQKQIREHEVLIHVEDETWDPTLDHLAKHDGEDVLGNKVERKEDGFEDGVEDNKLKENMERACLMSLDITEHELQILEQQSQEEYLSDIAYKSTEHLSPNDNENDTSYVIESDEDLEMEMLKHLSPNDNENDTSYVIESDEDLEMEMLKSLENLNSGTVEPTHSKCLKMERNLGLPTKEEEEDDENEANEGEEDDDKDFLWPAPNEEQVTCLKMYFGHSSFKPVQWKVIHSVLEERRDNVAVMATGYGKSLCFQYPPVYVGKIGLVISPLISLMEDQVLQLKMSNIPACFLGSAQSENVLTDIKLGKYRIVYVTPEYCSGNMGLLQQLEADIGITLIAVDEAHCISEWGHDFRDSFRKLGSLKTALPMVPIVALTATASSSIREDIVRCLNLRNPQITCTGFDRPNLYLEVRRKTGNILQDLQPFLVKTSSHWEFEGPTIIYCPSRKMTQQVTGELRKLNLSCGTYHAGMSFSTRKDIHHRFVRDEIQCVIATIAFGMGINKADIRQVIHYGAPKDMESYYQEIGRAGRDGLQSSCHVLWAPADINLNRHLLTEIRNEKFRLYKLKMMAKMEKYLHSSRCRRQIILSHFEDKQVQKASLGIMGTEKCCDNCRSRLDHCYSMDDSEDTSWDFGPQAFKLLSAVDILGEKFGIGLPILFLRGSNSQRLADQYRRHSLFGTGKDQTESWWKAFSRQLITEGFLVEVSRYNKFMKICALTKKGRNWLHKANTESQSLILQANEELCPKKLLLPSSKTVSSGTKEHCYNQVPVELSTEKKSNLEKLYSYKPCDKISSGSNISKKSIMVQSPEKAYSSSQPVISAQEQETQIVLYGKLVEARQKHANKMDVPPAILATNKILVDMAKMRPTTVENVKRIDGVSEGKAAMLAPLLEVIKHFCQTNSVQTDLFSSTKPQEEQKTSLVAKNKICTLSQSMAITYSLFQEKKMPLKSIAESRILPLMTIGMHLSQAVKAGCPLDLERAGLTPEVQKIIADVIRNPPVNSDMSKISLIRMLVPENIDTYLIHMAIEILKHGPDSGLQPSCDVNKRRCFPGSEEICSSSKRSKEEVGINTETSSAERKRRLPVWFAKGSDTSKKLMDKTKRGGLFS
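Kinetic fluorescence helicase assay: unwinding of a quenched forked DNA duplex (100 nM final) with 2 mM ATP final raises red fluorescence (525/598 nm). Compounds sat 15 min at room temperature with 20 nM WRN beforehand.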
PLK1 PBD inh: blocks phosphopeptide binding to human PLK1 polo-box domain; P53350; Plk1 PBD binding of FITC phosphopeptide, fluorescence polarization; Potency, µM, for the others: max response, negative = inhibition, most hits filed as inhibitors; 360,000 compounds, 2.8% hits; AID 720504; note: potency is the fitted concentration of half-maximal effect; series mostly up to about 57 µM; % is set by controls: 0 for no effect and ±100 for the full control effect; nearly all actives have a fitted effect of over 65% in size
EPAC1 antagonist: antagonists of human EPAC1 | 360,000 compounds, 0.14% hits | EPAC1 GEF assay, Rap1b-BODIPY-GDP exchange fluorescence | O95398 | Potency, µM (top dose mostly 115 µM), without a hit: at the top dose activity change, negative = inhibition, actives largely listed as inhibitors;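 note: potency is the fitted concentration of half-maximal effect; plate controls were vehicle for no effect and positive control for full effect; nearly all actives have a fitted effect of over 50% in size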
PI5P4Ka inh: PI5P4K alpha (human) kinase inhibition. PI5P4Kalpha enzyme, ADP-Glo luminescence, 60 min; stronger effect = lower value. max response, %. 330,000 compounds, 1.2% hits; active = max response of -50% or lower; inconclusive = between -30% and -50%; inactive = -30% or higher; note: value at the top dose of about 77 µM; % is set by controls: 0 for no effect and ±100 for the full control effect
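Human PI5P4Kalpha with substrate in 0.038 M HEPES pH 7.4, 0.28 mM EGTA, 0.1% CHAPS, 5% DMSO; reaction started with 5 microM ATP (final), 60 min at room temperature. ADP formed read by ADP-Glo luminescence.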
CCT chaperon mod: cytosolic chaperonin activity modulation; purified chaperonin ATPase assay, HTRF ADP detection, 30 min; activity change, % (test concentration not listed), hits read low; 360,000 compounds, 0.3% hits; AID 651819; in the data active = activity change below about -30%; note: % is set by controls: 0 for no effect and ±100 for the full control effect
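First, chaperonin was dispensed at 40 nM or 20 nM final depending on batch activity. Next, compounds were pinned at 76 uM and ATP added at 10 uM. After 30 min at 37 °C, ADP detection reagents ran 30 min at ambient temperature.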
Mm-Cpn inhibitor: M. maripaludis TRiC chaperonin inhibition. purified Mm-Cpn ATPase, ADP Transcreener TR-FRET. Potency, µM (top dose mostly 76.9 µM), without a hit: top-dose activity, negative = inhibition, hits mostly inhibitors. 330,000 compounds, 0.031% hits. AID 504842; note: potency is the fitted concentration of half-maximal effect; % is set by controls: 0 for no effect and ±100 for the full control effect; nearly all actives have a fitted effect of over 80% in size
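ATPase read-out: TR-FRET ADP immunoassay (anti-ADP Eu cryptate vs ADP-d2), ex 320 nm, em 590/665 nm; signal drops as ADP forms. Enzyme 25 nM, ATP 10 uM, 30 min at 37°C after 10 min compound preincubation.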
EPAC1 agonist: EPAC1 (human) agonism | O95398 | EPAC1 agonist qHTS, biochemical assay; response scale: 100% = response to 6.5 mM cAMP | Potency, µM (doses to about 154 µM), for inactives: top-dose activation, actives largely listed as activators | 360,000 compounds, 0.073% hits | AID 720707; note: potency is the fitted concentration of half-maximal effect; nearly all actives have a fitted effect of over 60% in size
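Compounds were pinned as a concentration titration into mixtures of EPAC1 (100 nM), BODIPY-GDP-loaded Rap1B (250 nM) and GDP (50 uM). After 5 min at room temperature, fluorescence was followed for 30 min; activity was scaled to 6.5 mM cAMP.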
Starred values were filed as active, the others as inactive; u = inconclusive; x = no result given; & = joins results of further samples; [ ] = another dose, or the depositor's remark. Unless noted, calls come from the whole dose curve; as a rule, active = well fitted curve in the direction sought with a large enough effect; inconclusive = small, poorly fitted or top-dose-only effect, or another doubt; inactive = no such curve, though single readings can be large; an effect the other way counts as inactive or inconclusive. These rows are one share of the data, so the mix of outcomes need not match the whole.

SMILES	WRN helicase inh	PLK1 PBD inh	EPAC1 antagonist	PI5P4Ka inh	CCT chaperon mod	Mm-Cpn inhibitor	EPAC1 agonist
CC(OC(=O)CCOc1ccccc1)C(=O)NC1CC1 (stereo not drawn)	3.4%	-2.6%	-3.1%	0.6	8.6	-1.4%	24.2%
Cc1ccc(C2N(c3cccc(Cl)c3)C(=O)N3CCCN23)cc1 (stereo not drawn)	1.5%	-0.6%	1.5%	2.1	-0.8	1.4%	0.3%
Cn1ccc2c(-c3ccc(C(F)(F)F)cc3)cc3c(c21)C1CCC3O1 (stereo not drawn)	3.8%	3.3%	-15.2%	41.6	-1.3	x	-2.0%
Cc1cc(C(=O)NNC(=S)NC(C)c2ccccc2)c2ccccc2n1 (stereo not drawn)	-0.6%	-18.4%	2.7%	-7.5	-6.6	0.1%	0.8%
Cn1c(C2CC(=O)N(Cc3ccccc3)C2)nc2ccccc21 (stereo not drawn)	-0.3%	4.9%	9.2%	-4.7	-0.3	0.1%	-6.6%
COc1ccccc1Cc1c(-c2ccc(OC)c(OC)c2)nc2ccc(Br)cn12	-4.7%	-7.9%	9.5%	-2.2	-0.2	x	-9.3%
Cc1ccc(C2(c3noc(CN(C)Cc4cccnc4)n3)CCCC2)cc1	-6.7%	-3.2%	-22.2%	1.9	-3.5	3.2%	1.7%
Cc1ccn2c(NC3CCCCC3)c(-c3cccc(SC4CCCCC4)c3)nc2c1	-4.4%&1.7%	-4.3%&-3.9%	-16.2%&11.7%	-6.2&-10.9	-2.4&0.5	-2.2%	-6.5%&23.2%
Cc1ccc2cccc(Oc3nnnn3-c3ccccc3)c2n1	5.6%	-2.6%	0.6%	5.4	-0.6	1.1%	3.0%
Cc1ccc(S(=O)(=O)N2[C@@H](c3cccc(C)c3)C(C(=O)O)=C[C@H]2C(C)(C)C)cc1	-2.8%	-19.9%	-7.9%	0.5	-3.0	-2.1%	-11.9%
COc1ccc(C2CC(=O)Oc3ccc(OC)cc32)cc1 (stereo not drawn)	-7.1%	-6.9%	-2.9%	-1.0	-1.6	1.9%	-8.2%
Cc1cc(C)c2c(c1)OC(=O)CC2c1ccc2c(c1)OCO2 (stereo not drawn)	-4.0%	-5.7%	-18.5%	-9.2	0.2	0.6%	0.4%
COc1cccc(CC(=O)NCC2COc3ccccc3O2)c1OC (stereo not drawn)	-5.6%	-11.8%	-8.8%	x	1.9	-5.1%[15.4 µM]	16.5%
CCC(=O)N1N=C(c2cccs2)CC1c1ccc(C)cc1 (stereo not drawn)	-8.7%	26.7µM*	-25.6%	6.6	0.3	-3.3%	5.7%
Cc1ccccc1C1CC(=O)c2ccccc2C1C (stereo not drawn)	-7.5%	-7.1%	-20.9%	3.4	-2.4	x	9.6%
Cc1cc2ccccn2c1C(=O)c1ccc(F)cc1	-10.8%	-7.9%	-13.1%	0.0	-0.2	-7.6%	0.8%
Cc1ccc(S(=O)(=O)N=C2SCCCS2)cc1	12.1%	-5.0%	13.0%	1.9	3.3	-2.0%	-2.0%
O=C(O)c1cnc(-c2ccccc2)nc1Sc1ccccc1Cl	-4.4%	u	4.7%	0.1	0.0	-8.1%	-2.7%
COc1cccc(Cn2cnc(-c3ccccc3OC)c2-c2ccco2)c1	-0.2%	-9.3%	-4.5%	-10.8	0.2	x	-6.2%
Cc1ccccc1C(=O)OCC(=O)NCC1COc2ccccc2O1 (stereo not drawn)	-2.2%	-0.3%	-7.6%	0.9	-4.9	-2.8%	-13.6%
COCCN(CCOC)Cc1cc(=O)oc2ccccc12	-1.5%	-10.7%	4.6%	-7.2	1.1	x	-10.6%
N#Cc1ncn(-c2ccc(Oc3ccccc3)cc2)c1N	0.5%	0.6%	-5.3%	10.8	-0.1	1.0%	10.5%
COc1ccc(N(CN2C(=O)C3CCCCC3C2=O)C(=O)c2ccco2)cc1 (stereo not drawn)	-11.0%	-0.2%	-4.7%	2.0	-3.8	0.0%	1.0%
C=CCSc1nnc2c(n1)[nH]c1c(C)cccc12	-12.4%	-2.8%	-4.1%	x	-3.1	0.1%	6.6%
COC(=O)Cc1c(C)nc2nc[nH]n2c1=O	0.6%	-5.6%	1.5%	x	-3.1	1.2%	7.8%
CC(C)(C)NC(=O)CN(C(=O)CCN1CCCc2ccccc21)C(C)(C)C	1.2%	-4.4%	5.3%	x	2.0	-1.8%	-2.3%
O=C(COc1ccc(Br)cc1Cl)c1ccc[nH]1	-12.6%	-13.4%	-16.7%	-24.7	1.2	1.1%	8.9%
O=C(O)c1cnn(-c2nc(-c3ccc(Cl)c(Cl)c3)cs2)c1C(F)(F)F	-10.5%	26.7µM*	-27.3%	0.7	-0.2	-1.9%	-3.0%
O=[N+]([O-])c1cc(-c2n[nH]c(-c3ccccc3)n2)cc([N+](=O)[O-])c1	-10.7%	-4.0%	-14.9%	x	1.9	1.5%	6.1%
COc1ccc(NC(=O)CSc2ccccc2)cc1S(=O)(=O)N1CCCCC1	-24.5%	u	-5.6%	-2.2	-2.2	0.4%	11.9%
CCc1nc2c(OCCC3CCCCC3)cccn2c1N(C)C(=O)C(C)C	1.5%	-6.9%	-11.8%	-1.2	-0.6	x	-4.3%
O=C(O)C(=O)Nc1ccc(NC(=O)C(c2ccccc2)c2ccccc2)cc1	9.2%	-10.2%	3.3%	-6.7	1.7	-0.8%	2.5%
COCCN(CCOC)Cc1cc(=O)oc2cc(C)cc(C)c12	-0.4%	-9.7%	-10.5%	-0.7	-2.2	x	2.3%
CC(=O)c1ccc(Oc2nc(-c3cccnc3)nc3ccccc23)cc1	13.2%	1.6%	-6.4%	-6.7	-2.7	-13.7%	0.9%
CCOc1ccc(N(Cc2ccc(OC)cc2)C(=O)c2ccco2)cc1	-6.3%[57.1 µM]	5.8%	1.1%	8.7	-1.2	-11.0%	0.1%
CC(OC(=O)c1ccccc1Oc1ccccc1)C(=O)NC1CC1 (stereo not drawn)	-5.7%	0.9%	u	-4.6	-1.1	1.0%	0.9%
COc1ccc(C=C(C(C)=O)C(=O)c2ccccc2)cc1	-0.1%[57.1 µM]	-10.9%	-10.9%	-2.1	1.2	x	-0.6%
COc1ccc(C(=O)C=CNNC(=O)c2ccc(Cl)cc2)cc1	-7.7%[57.1 µM]	3.5%	-24.8%	4.5	1.0	-1.3%	-15.2%
CC[C@@H]1C=C(C(=O)O)[C@H](c2ccc(Cl)c(Cl)c2)N1S(=O)(=O)c1ccc(C)cc1	0.5%	-20.4%	-7.7%	-1.5	1.1	2.4%	-11.8%
COCCNC(=O)c1noc2c1CCc1cc(OC)ccc1-2	21.6%	-9.3%	-1.7%	x	-2.7	-8.0%	4.2%
Cn1ccc2c(-c3ccc(C(C)(C)C)cc3)cc3c(c21)C1CCC3O1 (stereo not drawn)	-1.3%	1.6%	-18.8%	31.0	0.5	x	-9.4%
COc1ccc(NC(=O)CCNC(=O)C2CCN(S(=O)(=O)c3ccc(OC)cc3)CC2)cc1	-6.7%	-2.6%	1.3%	-4.6	1.7	-7.1%	7.9%
CN1CCN(S(=O)(=O)c2ccc(NC(=S)NC(=O)C3CCCCC3)cc2)CC1	-6.1%	u	-6.6%	-19.2	-1.4	-1.4%	-3.3%
COc1ccc(Cl)c(S(=O)(=O)N2CCCC2)c1	-15.1%	-11.0%	-21.9%	1.0	-2.8	-2.6%	3.6%
CCCC/C=C/[C@H](c1ccccc1)[C@H](CO)Cc1cccnc1	-9.1%	1.1%	-14.0%	7.5	-1.4	x	-9.0%

A different layout for part of the listing above.
| structure | WRN helicase inh | PLK1 PBD inh | EPAC1 antagonist | PI5P4Ka inh | CCT chaperon mod | Mm-Cpn inhibitor | EPAC1 agonist |
| --- | --- | --- | --- | --- | --- | --- | --- |
| COCCN(CCOC)Cc1cc(=O)oc2cc(C)cc(C)c12 | -0.4% | -9.7% | -10.5% | -0.7 | -2.2 | x | 2.3% |
| Cc1ccccc1C1CC(=O)c2ccccc2C1C (stereo not drawn) | -7.5% | -7.1% | -20.9% | 3.4 | -2.4 | x | 9.6% |

Later entries:
SMILES	WRN helicase inh	PLK1 PBD inh	EPAC1 antagonist	PI5P4Ka inh	CCT chaperon mod	Mm-Cpn inhibitor	EPAC1 agonist
Cc1ccc2[nH]c(=O)c(C(c3nnnn3Cc3ccccc3)N3CCc4ccccc43)cc2c1 (stereo not drawn)	-23.0%	-4.0%	-1.7%	x	-3.0	u	13.8%
O=C1CCCC2=C1C(c1cccc(O)c1)c1c(ccc3ncccc13)N2 (stereo not drawn)	-9.5%	-5.0%	-12.0%	-0.5	1.6	-0.6%	3.1%
CCCOc1ccc(Oc2nc(-c3ccncc3)nc3ccccc23)cc1	-10.4%	-5.8%	0.0%	10.3	1.1	-2.6%	9.2%
Cc1ccc(S(=O)(=O)N2[C@@H](c3ccc(C#N)cc3)C(C(=O)O)=C[C@H]2CC2CCCC2)cc1	-0.5%	29.9µM*	-9.8%	-0.2	1.0	2.8%	-6.4%
COc1cccc(N/C=C/C(=O)c2ccc(Cl)cc2)c1	-6.4%	-7.0%	-21.7%	51.7	-2.5	-0.2%	20.0%
CC(=O)N1CCCN(Cc2nc(C3(c4ccc(C)cc4)CCCC3)no2)CC1	-0.9%[57.1 µM]	2.1%	-18.7%	5.2	-1.1	-2.1%	4.9%
Cc1cccc(C(=O)N2CCc3cc(-c4nc(NC(=O)CN5CCCC5)sc4C)ccc32)c1	-8.7%	-7.8%	-18.2%	0.1	-1.6	-0.8%	9.6%
CC[C@@H]1C=C(C(=O)O)[C@H](c2cccc(C)c2)N1S(=O)(=O)c1ccc(C)cc1	-0.7%	-9.4%	-7.2%	-2.1	-0.1	-1.1%	0.2%
O=C(Nc1ccc(S(=O)(=O)N2CCCC2)cc1)C1CCCCC1	18.2%	-10.0%	21.0%	1.6	-1.0	1.1%	14.6%
CCCNC(=O)c1noc2c1CCc1cc(OC)ccc1-2	3.3%	26.7µM*	-3.9%	-1.4	-3.8	1.1%	8.9%
COc1cc(-c2nc3ccc(C)cn3c2NCc2ccccc2)ccc1-c1cccc(Cl)c1	-9.2%	3.3%	-2.7%	14.0	-0.7	-2.0%	19.9%
O=C(CSc1nnc(SCc2ccccc2)s1)N/N=C/C=C/c1ccccc1[N+](=O)[O-]	-6.4%	-15.6%	3.8%	-0.4	-14.2	-2.6%	5.2%
c1ccc(CNc2c(-c3cccc(SC4CCCCC4)c3)nc3ccccn23)cc1	-4.7%&8.5%	-14.0%	-11.5%&-12.8%	0.7&-1.7	-0.3	0.6%	-4.4%
COc1ccc(NC(=O)CN(C)C(=O)/C=C/c2ccc(S(=O)(=O)N3CCCCCC3)cc2)cc1	5.5%	-8.6%	-18.4%	-12.5	-7.0	0.2%	-19.1%
CCOc1cc(C)c(S(=O)(=O)N2CCCC2)cc1C	3.5%	-1.3%	-15.8%	x	-2.8	1.1%	18.6%
